A1 inh – caspase 3/7 activation in MEF A1-2A-BIM cells, primary screen, A1 inhibitor project, cell-based, luminescence, HTS; caspase activation, % (concentration not given with the values); Caspase-Glo 3/7 luminescence, 3 h; percent of clofoctol response, vehicle zero; AID 2462, 2010; hit rate 0.066% among 330,000;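 active = over half of replicate activation scores above 10%, or exactly half above 10 with the replicate mean above 10; inconclusive = replicate mean below 10 yet half the replicates above 10; inactive = over half of replicates below 10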;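 also: wells of about 30 µL received 50 nL stock; many hits fall short of the cut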
Beta2AR agonist – beta2AR agonists driving receptor internalization, primary screen, cell-based, FAP fluorogen, flow cytometry; Beta-2 adrenergic receptor (Homo sapiens), P07550; Am2.2-beta2AR cells; reference of the scale not given here; response, % (test concentration not listed); hit rate 0.43% among 340,000; AID 504454, 2011;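 active = response above a set limit, near 3 SD of response in nonfluorescent compounds, cut at about 42% in these data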;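 also: stock transfer was 100 nL into about 11 µL; a reference agonist was the positive control; negative values mostly stem from fluorescent compounds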
Target sequence (P07550 whole entry, looked up): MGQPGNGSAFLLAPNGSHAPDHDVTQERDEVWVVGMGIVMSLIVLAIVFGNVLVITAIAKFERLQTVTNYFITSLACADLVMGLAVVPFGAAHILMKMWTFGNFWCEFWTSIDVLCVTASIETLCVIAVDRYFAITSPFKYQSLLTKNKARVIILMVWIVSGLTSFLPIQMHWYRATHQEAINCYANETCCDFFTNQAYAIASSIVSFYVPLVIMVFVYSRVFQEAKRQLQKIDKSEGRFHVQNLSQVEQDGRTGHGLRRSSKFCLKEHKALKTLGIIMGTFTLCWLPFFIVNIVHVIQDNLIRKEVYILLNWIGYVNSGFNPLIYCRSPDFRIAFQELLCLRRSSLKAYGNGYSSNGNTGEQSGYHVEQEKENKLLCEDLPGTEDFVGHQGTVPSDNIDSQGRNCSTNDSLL
Beta apoptosis – inhibitors of cytokine-induced beta cell apoptosis, primary screen, luminescence; INS-1E cytokine-induced death, ATP luminescence, 48 h; percent of positive-control rescue, neutral wells zero; protection from apoptosis, % (test concentration not listed); hit rate 0.8% among 300,000; AID 435005, 2010;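 active = all replicates at 75% or more, or half of them and the mean; inconclusive = half reach 75% but not the mean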;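 also: 0% = cytokine-treated negative control wells and 100% = positive control rescue; higher means more ATP so stronger rescue from cytokine killing; wells of about 40 µL received 100 nL stock; the first replicate is given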
LANA-H2A inh – blockers of LANA interaction with H2A/H2B – biochemical, FP readout, HTS, primary screen; Protein LANA1 (Human herpesvirus 8 type P (isolate GK18)), Q9QR71; cell-free LANA-H2A/H2B peptide, fluorescence polarization; inhibition, % (concentration not given with the values); hit rate 0.6% among 320,000; in the data active = inhibition mostly above about 10%, no sharp cut-off; inactive = mostly below about 6.7%;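 also: stock transfer was 7.5 nL into about 10 µL; 0% = median of vehicle wells and 100% = median of positive control wells; one replicate is shown; the record names a cut of 25% in any replicate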
UCH37 inh – inhibitors of human UCH37 deubiquitinase, primary screen, biochemical, Ub-AMC cleavage, fluorescence. Ubiquitin carboxyl-terminal hydrolase isozyme L5 (Homo sapiens), Q9Y5K5. purified proteasome/UCH37. hit rate 0.33% among 330,000. inhibition, % (no concentration beside the values). AID 588478, 2011;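 active = mean of two replicates above 20%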;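 also: 0% = compound-free wells with enzyme and 100% = wells lacking proteasome; stock transfer was 100 nL into about 20 µL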
Target sequence (Q9Y5K5 whole entry, looked up): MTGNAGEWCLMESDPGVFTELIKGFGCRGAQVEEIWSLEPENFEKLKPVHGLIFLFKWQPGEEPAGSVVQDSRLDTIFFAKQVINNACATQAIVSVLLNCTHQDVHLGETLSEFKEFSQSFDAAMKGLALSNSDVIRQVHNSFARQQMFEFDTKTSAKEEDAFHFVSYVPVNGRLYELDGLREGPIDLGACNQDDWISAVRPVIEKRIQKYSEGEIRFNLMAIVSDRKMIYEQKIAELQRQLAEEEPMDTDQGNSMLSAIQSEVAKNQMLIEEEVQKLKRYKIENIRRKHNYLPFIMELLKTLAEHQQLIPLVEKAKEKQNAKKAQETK
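Assay system: Proteasome-bound UCH37. Buffer or medium: pH 7.4 Tris-HCl (50 mM) with ovalbumin, ATP-MgCl2, DTT. Incubation: 30 min preincubation with enzyme, 25 min cleavage at room temperature. Measured by: fluorescence, ex 355 nm, em 460 nm. Read-out basis: percent inhibition. Control set: wells without proteasome as full block, compound-free enzyme plus substrate as uninhibited.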
RanGTP-Imp inh – inhibitors of RanGTP-importin-beta interaction, primary screen, biochemical, FRET, CFP-Ran, YFP-importin-beta, homogeneous; Ran GTPase (GTP-bound) - importin-beta complex; cell-free CFP-Ran/YFP-importin-beta FRET ratio; inhibition, % (test concentration not listed); hit rate 1.1% among 300,000; AID 2216, 2009;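 active = most replicates above 15%; inconclusive = exactly half above 15%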;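 also: 0% = DMSO wells and 100% = Ran loaded with GDP instead of GTP; wells of about 40 µL received 100 nL stock; the first replicate is given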
T cruzi inh – inhibitors of intracellular T. cruzi growth, primary screen, luminescence, NIH3T3 host cells. AID 1885, 2009. T. cruzi beta-gal in NIH3T3, 90 h. inhibition, % (concentration not given with the values). hit rate 1.4% among 300,000;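 active = mean inhibition across valid replicates above about 55%, limit read from the data; inconclusive = mean below that limit but half or more replicates reach it; inactive = mean below it, under half of replicates reach it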;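 also: signal also drops with host cell toxicity which is not excluded here; 0% = plate median of DMSO wells and 100% = zero luminescence signal; higher percent means less beta-gal luminescence so fewer parasites; stock transfer was 50 nL into about 50 µL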
Calb FLC – C. albicans growth inhibition with fluconazole, primary screen, CaCi-2 strain, Alamar Blue fluorescence; C. albicans CaCi-2 (fluconazole-resistant clinical isolate) + fluconazole, 48 h; hit rate 0.57% among 300,000; growth inhibition, % (no concentration beside the values);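 active = most replicates above 75%; inconclusive = exactly half above 75%; inactive = most below 75%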;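 also: all wells also contain fluconazole at 8 µg/ml as a sub-toxic cotreatment; 0% = median of DMSO wells and 100% = median of geldanamycin control wells; wells of about 8 µL received 7.5 nL stock; the first replicate is given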
Active calls of the source: *; & = joins results of further samples.

How did COc1cccc(CN(C(=O)c2cnccn2)C(C(=O)NC2CCCCC2)c2cc(OC)c(OC)c(OC)c2)c1 (stereo not given) do in these assays?
A1 inh: -0.6; Beta2AR agonist: -8; Beta apoptosis: 2; LANA-H2A inh: 2.4; UCH37 inh: 6.4; RanGTP-Imp inh: -2.0; T cruzi inh: -6; Calb FLC: 0

How did COc1ccc2[nH]c(=O)c(CN(CCO)C(=O)NCc3ccccc3)cc2c1 do in these assays?
A1 inh: 0.4; Beta2AR agonist: -3; Beta apoptosis: -5; LANA-H2A inh: 1.9; UCH37 inh: -58; RanGTP-Imp inh: -2.9; T cruzi inh: -15; Calb FLC: -15

How did c1ccc(-c2nnc(-c3ccccc3)c(-c3c[nH]c4ccccc34)n2)cc1 do in these assays?
A1 inh: 1.5; Beta2AR agonist: 3; Beta apoptosis: 11; LANA-H2A inh: 1.9; UCH37 inh: 3.4; RanGTP-Imp inh: 2.4; Calb FLC: 12

Results for CC1CC(C#N)N(N(C)C)C1=C(C#N)C#N (stereo not given) ?
A1 inh: 0.3; Beta2AR agonist: -1; Beta apoptosis: -6; LANA-H2A inh: 1.1; UCH37 inh: 2.2; RanGTP-Imp inh: 0.9; T cruzi inh: -10; Calb FLC: -2

Results for CSc1ncc(Cl)c(C(=O)Nc2nnc(SC)s2)n1 ?
A1 inh: 1.0; Beta2AR agonist: 2; Beta apoptosis: 2; LANA-H2A inh: -4.1; UCH37 inh: 4.8; RanGTP-Imp inh: 4.2; T cruzi inh: 8; Calb FLC: 6

What do the screens show for `Cc1[nH]c(=O)nc(SCc2ccc(Cl)c(Cl)c2)c1C#N`?
A1 inh: 1.1; Beta2AR agonist: 7; Beta apoptosis: -2; LANA-H2A inh: 1.3; UCH37 inh: 1.1; RanGTP-Imp inh: 6.8; T cruzi inh: -9; Calb FLC: -11

How did CCN(c1ccccc1)c1ncnc2c1cnn2-c1ccccc1 do in these assays?
A1 inh: 0.2; Beta2AR agonist: -3; Beta apoptosis: 0; LANA-H2A inh: 5.3; UCH37 inh: 2.1; RanGTP-Imp inh: 2.4; T cruzi inh: -18; Calb FLC: 1

Results for CCn1c2c(c3cc(Br)ccc31)CCC/C2=N\O ?
A1 inh: -1.0; Beta2AR agonist: 9; Beta apoptosis: -2; LANA-H2A inh: 0.0; RanGTP-Imp inh: 2.9; T cruzi inh: 20; Calb FLC: 7

What do the screens show for `O=C1CCC(C(=O)OCc2ccccc2)N1` (stereo not given)?
A1 inh: -0.6; Beta2AR agonist: 7; Beta apoptosis: -7; LANA-H2A inh: -1.5; UCH37 inh: 0.0; RanGTP-Imp inh: -1.0; T cruzi inh: -15; Calb FLC: -16

What do the screens show for `COc1ccc(NC(=O)c2ccccc2NC(=O)C2CC=CCC2C(=O)O)cc1` (stereo not given)?
A1 inh: 1.0; Beta2AR agonist: 4; Beta apoptosis: -3; LANA-H2A inh: 2.4; UCH37 inh: -0.9; Calb FLC: -4

What do the screens show for `Nc1nc(-c2ccc([N+](=O)[O-])cc2)c(C(=O)Nc2ccc(Cl)cc2)s1`?
A1 inh: -0.2; Beta2AR agonist: 10; Beta apoptosis: -1; LANA-H2A inh: -2.8; UCH37 inh: 0.9; RanGTP-Imp inh: 0.9; T cruzi inh: -1; Calb FLC: -1

How did COc1cc(CN2CCN(c3ccccc3C)CC2)cc([N+](=O)[O-])c1O do in these assays?
A1 inh: 0.5; Beta2AR agonist: 7; Beta apoptosis: 0; LANA-H2A inh: -1.9; UCH37 inh: 5.9; RanGTP-Imp inh: 6.3; T cruzi inh: 4; Calb FLC: 4

What do the screens show for `O=C(CN(C(=O)c1ccccc1Cl)N1C(=O)C2C3C=CC(C3)C2C1=O)c1cccs1` (stereo not given)?
A1 inh: -0.8; Beta2AR agonist: 3; Beta apoptosis: -3; LANA-H2A inh: 0.8; UCH37 inh: 4.5; RanGTP-Imp inh: 8.7; T cruzi inh: 1; Calb FLC: 3

How did O=C(O)CCCC(=O)Nc1ccc(C(=O)NCc2cccnc2)cc1 do in these assays?
A1 inh: -0.1; Beta2AR agonist: -6; Beta apoptosis: 101*; LANA-H2A inh: -2.1; UCH37 inh: 2.3; RanGTP-Imp inh: -1.7; T cruzi inh: -1

Results for COc1ccc(-c2nc(CN3CCC(C(=O)NCC4CCCO4)CC3)c(C)o2)cc1OC (stereo not given) ?
A1 inh: -0.2; Beta2AR agonist: 1; Beta apoptosis: -1; LANA-H2A inh: -0.4; UCH37 inh: -1.6; RanGTP-Imp inh: -0.4; T cruzi inh: 10; Calb FLC: -5

What do the screens show for `COc1cc(/C=N/NC(=O)c2cccc([N+](=O)[O-])c2)ccc1OCc1ccccc1`?
A1 inh: -0.4; Beta2AR agonist: -2; Beta apoptosis: 2; LANA-H2A inh: 2.4; RanGTP-Imp inh: -2.0; T cruzi inh: 3; Calb FLC: 23

What do the screens show for `COc1ccc(CN2CCNC(=O)C2CC(=O)NC2Cc3ccccc3C2)c(OC)c1` (stereo not given)?
A1 inh: 0.0; Beta2AR agonist: -3; Beta apoptosis: -7; LANA-H2A inh: -0.2; UCH37 inh: 2.4; RanGTP-Imp inh: inconclusive; T cruzi inh: 7; Calb FLC: 3

What do the screens show for `O=C(COC(=O)CCc1ccc(S(=O)(=O)N2CCOCC2)cc1)NC(=O)NC1CCCCC1`?
A1 inh: 1.6; Beta2AR agonist: 5; Beta apoptosis: -7; LANA-H2A inh: 2.4; UCH37 inh: 2.5; RanGTP-Imp inh: 4.3; T cruzi inh: -3; Calb FLC: 0

Results for C#CCOCCOCCOCCNc1nc(N2CCN(C(=O)CCCCCCCCCCNC(=O)[C@H]([C@@H](C)CC)n3cc(CCCCCN)nn3)CC2)nc(N2CCN(C(=O)CCCCCCCCCCNC(=O)[C@@H]([C@H](C)O)n3cc(C)nn3)CC2)n1 ?
A1 inh: -0.1; Beta2AR agonist: 29; Beta apoptosis: 81*; LANA-H2A inh: -1.6; UCH37 inh: 1.6

How did CCN(CC(=O)Nc1ccccc1C(F)(F)F)C(=O)c1ccc(N2CCCC2=O)cc1 do in these assays?
A1 inh: -1.5; Beta2AR agonist: -5; Beta apoptosis: 2; LANA-H2A inh: -4.3; UCH37 inh: 2.6

How did COc1cc(C)ccc1OC(C)C(=O)Nc1ccc(N2CCCCC2)cc1 (stereo not given) do in these assays?
A1 inh: 0.6; Beta2AR agonist: -2; Beta apoptosis: -1; LANA-H2A inh: -2.8; UCH37 inh: -1.0

Results for COc1ccc2nc(Nc3nc4cc5c(cc4s3)OCO5)sc2c1 ?
A1 inh: -1.3; Beta2AR agonist: 6; Beta apoptosis: 6; LANA-H2A inh: 4.0; UCH37 inh: -74; RanGTP-Imp inh: 4.2; T cruzi inh: 15; Calb FLC: 3

How did CCOC(=O)C1CCCN(C(=O)Cn2nc(C)n3nc(-c4ccccc4)cc3c2=O)C1 (stereo not given) do in these assays?
A1 inh: -0.6; Beta2AR agonist: 2; Beta apoptosis: 1; LANA-H2A inh: 1.5; UCH37 inh: 4.5; RanGTP-Imp inh: 0.8; T cruzi inh: -4; Calb FLC: -13

How did C/C(=C/CCC(C)(O)C1CC[C@@]2(C)[C@@H]3CC=C4[C@@H](CC[C@H](O[C@H]5O[C@@H](CO)[C@H](O)[C@@H](O)[C@@H]5O)C4(C)C)[C@]3(C)C(=O)C[C@]12C)CO[C@@H]1O[C@H](CO)[C@@H](O)[C@H](O)[C@H]1O (stereo not given in full) do in these assays?
A1 inh: 1.4; Beta2AR agonist: -3; Beta apoptosis: -5; LANA-H2A inh: -4.2; UCH37 inh: -0.4

Results for CC1(C)Cc2ccccc2-c2nc(-c3ccccc3)oc(=O)c21 ?
A1 inh: 0.0; Beta2AR agonist: -5; Beta apoptosis: 1; LANA-H2A inh: 6.6; UCH37 inh: 1.3; RanGTP-Imp inh: 1.4; T cruzi inh: 6; Calb FLC: -12

Results for Cc1noc(C)c1NC(=O)N(C)C[C@H]1Oc2c(NC(=O)Cc3ccccc3)cccc2C(=O)N([C@H](C)CO)C[C@@H]1C ?
A1 inh: 0.0; Beta2AR agonist: 7; Beta apoptosis: 4; LANA-H2A inh: 0.4; UCH37 inh: 4.5

How did Cc1ccc(C(=O)NC(=O)CSc2ncccc2C(=O)O)cc1 do in these assays?
A1 inh: 0.0; Beta2AR agonist: 5; Beta apoptosis: -6; LANA-H2A inh: -3.2; UCH37 inh: 4.9; RanGTP-Imp inh: -5.9; T cruzi inh: -3; Calb FLC: -4

What do the screens show for `CCCNC(C)(C)COC(=O)c1ccccc1`?
A1 inh: 0.2; Beta2AR agonist: 0; Beta apoptosis: -5; LANA-H2A inh: 0.0; UCH37 inh: 2.2

Results for O=C(O)c1cc(S(=O)(=O)NC23CC4CC(CC(C4)C2)C3)ccc1Cl ?
A1 inh: -0.5; Beta2AR agonist: 3; Beta apoptosis: -2; LANA-H2A inh: -0.4; UCH37 inh: 2.6; RanGTP-Imp inh: 1.8; T cruzi inh: -7; Calb FLC: 4

What do the screens show for `CCN(CC)CCNC(=O)c1ccc(NC(C)=O)cc1`?
A1 inh: -0.5&-0.8; Beta2AR agonist: -8&9; Beta apoptosis: -8&-2; LANA-H2A inh: -15&-1.9; UCH37 inh: 1.4&0.5; RanGTP-Imp inh: -4.9&0.3; T cruzi inh: -25&-10; Calb FLC: -4

Results for c1cncc(COC2CCCN(Cc3nc(-c4cccs4)no3)C2)c1 (stereo not given) ?
A1 inh: 0.0; Beta2AR agonist: 0; Beta apoptosis: -4; LANA-H2A inh: -4.6; UCH37 inh: 0.5; RanGTP-Imp inh: 0.5; T cruzi inh: -8; Calb FLC: -10

What do the screens show for `COC(=O)c1sc(NC(=O)COc2cccc(C)c2)nc1C`?
A1 inh: -0.1; Beta2AR agonist: 28; Beta apoptosis: -4; LANA-H2A inh: -6.2; UCH37 inh: 5.5; RanGTP-Imp inh: 3.1; T cruzi inh: -20; Calb FLC: 10

How did CCOc1ccc(OCC)c(NC(=O)CN2CCN(CC(=O)NC(C)C)CC2)c1 do in these assays?
A1 inh: 0.4; Beta2AR agonist: -8; Beta apoptosis: 14; LANA-H2A inh: 14*; UCH37 inh: 4.6; RanGTP-Imp inh: 4.2; T cruzi inh: 3; Calb FLC: -4

How did NC(=O)Nc1ccccc1C(=O)NCCc1ccccc1 do in these assays?
A1 inh: 0.0; Beta2AR agonist: -5; Beta apoptosis: 9; LANA-H2A inh: -1.4; UCH37 inh: 1.3; RanGTP-Imp inh: -0.8; T cruzi inh: 0; Calb FLC: 13

Screening data deposited in PubChem BioAssay by several laboratories.
